Screening data deposited in PubChem BioAssay by several laboratories.
A1 inh = inhibitors of the anti-apoptotic protein A1, read as caspase activation. caspase activation, % (concentration not given with the values). MEF A1-2A-BIM cells, Caspase-Glo 3/7 luminescence, 3 h; percent of clofoctol response, vehicle zero. hit rate 0.066% among 330,000. AID 2462;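 active = over half of replicate activation scores above 10%, or exactly half above 10 with the replicate mean above 10; inconclusive = replicate mean below 10 yet half the replicates above 10; inactive = over half of replicates below 10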;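 note: wells of about 30 µL received 50 nL stock; many hits fall short of the cut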
Beta apoptosis = blocks beta cell apoptosis | INS-1E cytokine-induced death, ATP luminescence, 48 h; percent of positive-control rescue, neutral wells zero | protection from apoptosis, % (concentration not given with the values) | hit rate 0.8% among 300,000 | AID 435005;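 active = all replicates at 75% or more, or half of them and the mean; inconclusive = half reach 75% but not the mean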;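 note: 0% = cytokine-treated negative control wells and 100% = positive control rescue; higher means more ATP so stronger rescue from cytokine killing; wells of about 40 µL received 100 nL stock; the first replicate is given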
AF4-AF9 inh = MLL-AF4/AF9 protein interaction inhibition; P42568; inhibition, % at 10 µM; hit rate 0.47% among 350,000; AlphaScreen, biotin-AF4 peptide binding to FLAG-AF9;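 active = every replicate reaching a set inhibition limit, whatever the replicate mean, cut at about 25% in these data; inconclusive = mean inhibition reaches that limit but some replicates miss it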;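 note: 0% = plate neutral control median and 100% = total signal loss; the record names both 10 and 1 µM as test concentration; the first replicate is given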
Vif TR-FRET = inhibitors of Vif binding to APOBEC3G peptide, primary screen, biochemical, TR-FRET, GST-Vif 1-94, biotin-A3G peptide, dose response retest (AID 1117319). TR-FRET GST-Vif / biotin-A3G peptide binding; higher % means a stronger effect; test concentration not given here; strong numbers were not always called active. inhibition, %; hits with a dose series show IC50 in µM. hit rate 0.57% among 260,000;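 active = above the screen mean plus three standard deviations and confirmed in dose response; inconclusive = results disagree or hit not tested in dose response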;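 note: Vif residues 1-94 fused to GST binding biotinylated APOBEC3G peptide 110-148; 0% = full assay without inhibitor and 100% = GST in place of GST-Vif; retest series ran down from 100 µM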
RanGTP-Impb inh = disruptors of Ran-importin-beta complex formation – biochemical, FRET, CFP-Ran, YFP-importin-beta, homogeneous, primary screen. cell-free CFP-Ran/YFP-importin-beta FRET ratio. inhibition, % (concentration not given with the values). hit rate 1.1% among 300,000;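 active = most replicates above 15%; inconclusive = exactly half above 15%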;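 note: 0% = DMSO wells and 100% = Ran loaded with GDP instead of GTP; wells of about 40 µL received 100 nL stock; the first replicate is given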
Calb FLC = C. albicans growth modulation with fluconazole. C. albicans CaCi-2 (fluconazole-resistant clinical isolate) + fluconazole, Alamar Blue growth, 48 h. hit rate 0.57% among 300,000. growth inhibition, % (test concentration not listed);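 active = most replicates above 75%; inconclusive = exactly half above 75%; inactive = most below 75%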;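 note: all wells also contain fluconazole at 8 µg/ml as a sub-toxic cotreatment; 0% = median of DMSO wells and 100% = median of geldanamycin control wells; wells of about 8 µL received 7.5 nL stock; the first replicate is given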
T cruzi inh = T. cruzi replication inhibition; hit rate 1.4% among 300,000; inhibition, % (concentration not given with the values); AID 1885; T. cruzi beta-gal in NIH3T3, luminescence, 90 h;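 active = mean inhibition across valid replicates above about 55%, limit read from the data; inconclusive = mean below that limit but half or more replicates reach it; inactive = mean below it, under half of replicates reach it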;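 note: signal also drops with host cell toxicity which is not excluded here; 0% = plate median of DMSO wells and 100% = zero luminescence signal; higher percent means less beta-gal luminescence so fewer parasites; stock transfer was 50 nL into about 50 µL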
LANA-H2A inh = blocks KSHV LANA binding to histone H2A/H2B. Q9QR71. cell-free LANA-H2A/H2B peptide, fluorescence polarization. inhibition, % (concentration not given with the values). hit rate 0.6% among 320,000. AID 2629; in the data active = inhibition mostly above about 10%, no sharp cut-off; inactive = mostly below about 6.7%;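 note: stock transfer was 7.5 nL into about 10 µL; 0% = median of vehicle wells and 100% = median of positive control wells; one replicate is shown; the record names a cut of 25% in any replicate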
Target sequence (Q9QR71 whole entry, looked up): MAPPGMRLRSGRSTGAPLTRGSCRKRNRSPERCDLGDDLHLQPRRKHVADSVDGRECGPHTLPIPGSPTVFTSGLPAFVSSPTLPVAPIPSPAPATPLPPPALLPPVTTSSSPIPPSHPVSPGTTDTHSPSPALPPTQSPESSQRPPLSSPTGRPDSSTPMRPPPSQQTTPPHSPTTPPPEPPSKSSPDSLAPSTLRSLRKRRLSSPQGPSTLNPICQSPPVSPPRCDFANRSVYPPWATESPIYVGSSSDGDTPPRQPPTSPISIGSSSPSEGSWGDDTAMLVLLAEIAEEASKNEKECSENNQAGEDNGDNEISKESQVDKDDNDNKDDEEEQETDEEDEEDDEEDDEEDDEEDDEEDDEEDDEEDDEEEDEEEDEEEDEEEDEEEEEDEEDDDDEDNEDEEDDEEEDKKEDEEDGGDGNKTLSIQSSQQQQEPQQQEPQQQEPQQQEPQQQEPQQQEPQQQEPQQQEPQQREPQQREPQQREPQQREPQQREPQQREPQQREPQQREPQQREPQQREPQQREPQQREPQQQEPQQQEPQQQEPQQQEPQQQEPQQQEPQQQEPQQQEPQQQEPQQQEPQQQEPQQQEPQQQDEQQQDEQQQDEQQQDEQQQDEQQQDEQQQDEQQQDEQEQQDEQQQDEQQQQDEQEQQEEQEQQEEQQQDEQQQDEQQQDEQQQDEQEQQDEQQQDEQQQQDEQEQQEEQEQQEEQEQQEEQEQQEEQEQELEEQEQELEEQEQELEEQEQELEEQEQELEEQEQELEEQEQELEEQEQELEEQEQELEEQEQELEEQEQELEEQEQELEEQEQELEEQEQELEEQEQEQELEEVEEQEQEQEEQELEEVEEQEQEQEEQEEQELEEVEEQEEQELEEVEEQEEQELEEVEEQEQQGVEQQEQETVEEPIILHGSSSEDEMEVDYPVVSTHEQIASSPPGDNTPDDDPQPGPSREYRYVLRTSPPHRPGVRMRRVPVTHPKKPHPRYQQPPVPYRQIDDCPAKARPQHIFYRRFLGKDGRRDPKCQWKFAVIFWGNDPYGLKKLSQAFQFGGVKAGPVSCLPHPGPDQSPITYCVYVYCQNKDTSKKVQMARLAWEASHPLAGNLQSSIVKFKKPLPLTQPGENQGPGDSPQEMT
Numbers without * were called inactive; ? = inconclusive; nt = no result given.

SMILES	A1 inh	Beta apoptosis	AF4-AF9 inh	Vif TR-FRET	RanGTP-Impb inh	Calb FLC	T cruzi inh	LANA-H2A inh
O=C(NC(=S)NCc1cccnc1)c1ccccc1F	0.1	-3	-2.8	nt	3.3	-3	1	-2.8
CC(=O)c1c(C)[nH]c(C(=O)OCC(=O)NCCc2ccc(Cl)cc2)c1C	0.7	3	nt	-3%	0.5	-2	4	-1.3
CCNC(=O)/C(C#N)=C/c1c(N2CCN(C)CC2)nc2c(C)cccn2c1=O	?	-4	-1.8	2%	-56	-2	1	-2.4
COc1cc(/C=C2\SC(=S)N(CC(=O)Nc3cccnc3)C2=O)cc(OC)c1OC	-0.3	2	0.9	-6%	16	-7	-25	-0.2
Nc1ccc(S(=O)(=O)NNC(=O)C(=O)NNc2ccccn2)cc1	0.8	1	nt	3%	3.8	13	2	2.4
CC1(C)NC(=O)N(CC(O)COc2ccc(-c3ccc(C#N)cc3)cc2)C1=O (stereo not given)	-0.8	6	nt	12%	-1.1	19	-10	1.5
Cc1ccccc1S(=O)(=O)Nc1nc2ccccc2nc1NCCO	-0.1	-4	nt	?	?	31	-9	-4.9
Cc1cccc(NC(=O)CN2C(=O)S/C(=C\c3ccc(-c4cccc(C(=O)O)c4C)o3)C2=O)c1	1.7	3	-0.7	1%	41*	-7	4	16
Cc1cc(=O)oc2cc(OCC(=O)NCCN3CCOCC3)ccc12	0.6	-4	-0.8	1%	-2.0	7	-6	-1.1
CC(=O)Nc1c(C)ccc(CNC(=O)COc2ccc(F)cc2)c1C	0.5	3	-9.7	14%	4.0	-5	-8	0.9
O=C(Nc1ccc(N2CCN(C(=O)c3cccs3)CC2)cc1)c1ccco1	0.4	5	-0.9	nt	2.4	0	0	-3.2
Cc1oc(=O)c(NC(=O)c2ccc(Cl)cc2)cc1C(=O)c1ccccc1	0.2	-10	nt	8%	2.3	?	-7	-4.7
COc1cccc(C(=O)N2CCN(C(=O)COc3ccc4ccccc4c3)CC2)c1	0.2	-6	-24	nt	-0.8	-1	4	0.6
CC(=O)c1ccc(OCC(=O)NCC2(N3CCCCC3)CCCCC2)cc1	-0.4	-2	9.2	26%	-3.3	6	-23	1.2
COc1ccccc1CNS(=O)(=O)c1ccc2c(c1)CC(=O)N2C	0.7	-7	0.3	nt	-5.2	-1	-17	3.3
CC(=O)Cn1ncc(N2CCOCC2)cc1=O	0.1	-8	-3.9	-15%	0.1	2	-4	1.4
CCOc1ccc(S(=O)(=O)Nc2ccc(C(=O)NCCCN3CCOCC3)cc2)cc1	-0.1	-5	-0.3	4%	?	1	-6	2.1
CCCSC1=N/C(=C/c2ccsc2)C(=O)N1c1ccccc1	-0.4	1	nt	nt	-4.1	-3	21	-0.2
Cc1ccc(C2N(c3ccc(Cl)c(Cl)c3)C(=O)C3CCCN32)o1 (stereo not given)	0.0	-8	nt	19%	-5.2	-13	6	-0.7
COc1ccccc1C(=O)N(CCC1CCCN1C)c1nc2ccccc2s1 (stereo not given)	-1.0	4	7.2	nt	-5.9	-17	50	-1.7
CCCCCCn1c(NCC)nc2c1c(=O)[nH]c(=O)n2C	-0.7	8	nt	4%	1.3	-3	-2	-2.0
S=C(NCc1ccco1)N1CCC(c2nc3ccccc3o2)CC1	-0.5	4	0.4	13%	-3.4	-1	0	1.8
CCOc1ccc(CNS(=O)(=O)c2ccc(-c3ccc(=O)[nH]n3)o2)cc1OC	-0.1	-5	-1.1	nt	4.7	23	-19	-3.0
Cc1cc(C(=O)NC2=NCCS2)c2ccccc2n1	-0.3	-9	-0.3	-6%	nt	-3	-3	0.1
COc1ccc(NC(=O)N2CCCCCC2)c(OC)c1	1.0	-2	-1.0	-7%	2.4	5	-5	3.6
CCOC(=O)c1c(C)[nH]c(C)c1C(=O)COC(=O)C1CC(=O)N(CCc2ccccc2)C1 (stereo not given)	0.2	3	2.4	-5%	nt	nt	nt	0.1
O=C(COC(=O)Cc1ccsc1)NCC1CCCCC1	0.0	-7	nt	24%	-14	3	-10	-2.0
CC(C)C(=O)Nc1ccc(NC(=O)c2cccnc2)cn1	0.5	8	nt	-9%	0.3	-1	-3	-5.7
C/C=N/N(c1ccccc1)c1ccccc1	nt	nt	2.1	?	-0.5	-5	2	nt
O=C(NCCc1ccccc1)c1cnc2sccn2c1=O	-0.1	nt	-1.7	24%	-0.4	7	-1	-1.1
CCOC(=O)C1=C(C)N=C2SC(C(=O)OC)=CC(=O)N2C1c1ccc(F)cc1 (stereo not given)	0.0	nt	nt	6%	2.9	-7	10	-5.7
COc1ccc(C[C@H]2CN3C(=NC[C@@H]3C(C)C)N2C[C@H](C)NC(=O)c2ccc(C)c(Br)c2)cc1	0.8	8	15	20%	-5.5	-12	31	-3.8
CCN1CCN(C(=O)c2cc(=O)c3cc(C)ccc3o2)CC1	0.7	-3	1.3	nt	-1.7	1	-3	1.8
CCOC1=C/C(=C/c2c(N)n3nc(CC(=O)N4CCCC4)sc3nc2=O)C=CC1=O	0.5	2	0.9	nt	4.5	-1	2	-3.0
COc1ccc(CNC(=O)[C@@H]2CC=C[C@@H]3CCN(C4CCCCC4)C(=O)[C@@H]32)cc1	1.4	-2	-1.8	nt	1.8	4	14	-0.4
CCC1=NN(C(=O)Cc2ccc([N+](=O)[O-])cc2)C(O)(C(F)(F)F)C1 (stereo not given)	1.0	1	nt	17%	0.4	-4	-36	4.7
c1ccc(CNC23CC4CC(CC(C4)C2)C3)nc1	1.1	-3	-0.9	23%	0.8	-6	-14	-1.3
Cc1cc(Cl)c(S(=O)(=O)N2CCSCC2)cc1OCC(N)=O	-0.8	-5	nt	3%	-2.3	-3	-10	-0.5
Cc1cc(S(=O)(=O)N2CCOCC2)ccc1OCC(=O)N1CCC(C(N)=O)CC1	0.5	2	-4.4	nt	-2.2	2	-9	0.1
CCOCCn1c(SC)nc2c1c(=O)[nH]c(=O)n2C	-0.1	-5	nt	4%	-3.8	28	-5	-3.3
CCCCNC(=O)c1onc(CSc2cc(C)ccc2C)c1C(=O)O	0.8	-5	-7.6	23%	-0.8	12	-12	-5.2
O=C(COC(=O)c1ccc(O)cc1)NC(c1ccccc1)c1ccccc1	-0.3	-2	-2.1	-8%	nt	nt	nt	-4.0
CS(=O)(=O)N(CC(=O)Nc1ccc(CC#N)cc1)c1ccc(C23CC4CC(CC(C4)C2)C3)cc1	0.1	88*	-2.7	2%	-4.8	11	70*	-2.1
CCc1ccc(N2C(=O)C3C4CCC(C4=C(C)C)C3C2=O)cc1 (stereo not given)	-0.1	-2	2.6	-4%	-3.4	1	8	4.5
CC1Cc2ccccc2N1C(=O)c1cc2sccc2n1Cc1ccc(F)cc1 (stereo not given)	2.2	14	nt	-3%	1.9	-3	47	-5.3
CCn1c(/C=C/c2ccc(F)cc2)nc2ccccc2c1=O	0.8	5	3.9	nt	-1.6	-14	4	-3.1
COc1ccc2[nH]c3c(N4CCc5ccccc5C4)ncnc3c2c1	0.3	2	-1.0	nt	1.7	0	7	-0.5
Cc1cc(C)cc(N(CC(=O)N2CC=C(c3ccccc3)CC2)S(=O)(=O)c2c(C)noc2C)c1	0.0	6	0.7	-2%	?	3	8	0.5
COc1ccc(CC(=O)N2CC(C)CC(C)C2)cc1OC (stereo not given)	0.1	-2	nt	3%	0.1	2	-9	-0.6
O=C(NCCc1ccccc1)c1ccc(-c2ccc(F)cc2)o1	0.5	2	-0.8	-5%	1.5	-5	2	3.8
COc1cccc2c1Oc1ncccc1N(C(=O)CCC(=O)NCc1ccccc1Cl)C2	0.2	-3	-1.6	nt	1.4	64	-1	1.9
Cc1c(-c2ccc(O)cc2)nc2nc(-c3ccccc3)c(-c3ccccc3)nn12	-0.9	-3	nt	nt	-249	1	17	-15
CCc1ccc(C(=O)CSc2nc(C)cc(=O)[nH]2)cc1	0.7	-4	-2.0	nt	1.2	-2	16	-1.5
COc1ccc(NC(=O)/C=C/c2ccc(OC(F)F)cc2)cn1	0.3	-7	-1.2	nt	1.9	6	-1	-0.4
Cc1ccc(S(=O)(=O)c2nnn3c2nc(N2CCC(C(N)=O)CC2)c2ccccc23)cc1	-1.0	nt	0.4	-5%	4.3	4	-3	2.2
COCCCNC(=O)c1cc2c(=O)n(C)c3ccccc3c2n1C	-0.2	5	1.0	2%	3.1	1	-4	2.0
CCC(=O)N/C(=N/c1nc(C)cc(C)n1)Nc1ccccc1	-0.4	-6	-2.5	nt	0.2	-1	7	3.2
COc1ccc(N2CCc3c(C)nc4c(OC)cc(OC)cc4c32)cc1	-0.7	nt	2.6	-16%	0.6	-6	73*	1.3
O=C(Nc1ccc2ncccc2c1)c1ccccc1	0.8	3	0.4	13%	-0.6	-1	-21	2.7
CC(C)Cn1cc(F)c(=O)n(CC(C)C)c1=O	-0.8	nt	-0.9	nt	4.0	19	-9	-1.1

(cont.)
SMILES	A1 inh	Beta apoptosis	AF4-AF9 inh	Vif TR-FRET	RanGTP-Impb inh	Calb FLC	T cruzi inh	LANA-H2A inh
COc1ccc(OCC(=O)Nc2ccc(S(=O)(=O)N3CCCC3)cc2)cc1	0.2	nt	-2.0	2%	1.3	10	-3	6.5
O=C(c1nn2c(C(F)(F)F)cc(-c3ccco3)nc2c1Br)N1CCCc2ccccc21	1.4	6	nt	?	-0.4	34	1	-1.1
CCOc1ccc(CNC(=S)N/N=C/c2cccnc2)cc1	0.2	1	2.4	nt	-3.0	-19	6	2.3
O=C(COC(=O)Cn1[nH]c(=O)c2ccccc2c1=O)Nc1c(Cl)cccc1C(F)(F)F	0.4	-7	0.6	nt	0.6	nt	-4	-0.2
O=C(CNC(=O)c1ccccc1)OCc1nnc(-c2ccccc2)o1	1.4	-2	-0.4	-5%	nt	1	-6	-4.1
CC1CCCC(NC(=O)COC(=O)/C=C/c2ccc([N+](=O)[O-])cc2)C1C (stereo not given)	-0.2	0	-1.0	nt	nt	nt	nt	-0.2
O=C(CN1CCN(CC(=O)Nc2ccc(-c3ccccc3)cc2)CC1)Nc1ccc(F)cc1	0.8	-7	1.7	nt	-2.8	-2	8	1.0
CC(=O)c1cccc(Nc2nc(-c3sc(C)nc3C)cs2)c1	0.6	nt	-1.3	nt	0.7	?	36	-2.5
CCCC(=O)Nc1ccc(NC(=O)CCc2ccccc2)cn1	-0.2	0	nt	1%	-2.8	11	-12	3.4
NS(=O)(=O)c1ccc(CCNC(=O)C(c2ccccc2)c2ccccc2)cc1	-0.4	-1	1.4	nt	1.8	0	0	3.4
Cc1ccc(C(=O)N2CCN(c3ccccn3)CC2)cc1[N+](=O)[O-]	0.3	-4	0.4	5%	-2.6	-1	-10	2.4
CN(C(=O)CSc1ncn[nH]1)C1(C#N)CCCCC1	0.6	-6	0.6	nt	nt	nt	nt	3.7
COc1ccc(CCNC(=O)Cn2cccc2C(=O)c2ccccc2)c(OC)c1	1.7	0	1.9	-10%	?	-2	6	-4.4
Cc1ccc(-n2nc3c(c2NC(=O)c2c(-c4ccccc4Cl)noc2C)CS(=O)(=O)C3)c(C)c1	0.0	1	-5.9	2%	-0.6	4	13	-5.1
Cc1cc(C)n(CC(C)NC(=O)CCc2nnc(CCc3ccccc3)o2)n1 (stereo not given)	0.6	1	?	-2%	1.9	-6	-11	-0.6
CCN(CC(=O)NCc1cccs1)C(=O)c1cc(Br)ccc1O	0.3	0	0.3	nt	nt	nt	nt	2.8
COc1cc(/C=C2\SC(=S)N(NC(=O)c3ccc(O)cc3)C2=O)ccc1O	1.4	0	8.0	nt	-14	-5	-6	-7.3
